Arbovirus anti = antivirals against arbovirus infection, primary screen, cell-based, full library, 10K replicate subset. arbovirus infection cell-based antiviral screen. inhibition, % at 10 µM. actives 0.37% (n = 200,000). AID 1251, 2008;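 active means inhibition from about 30%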;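 further: bluetongue infection of BSR cells; cell survival read as ATP light after 72 h; 0% = infected wells without compound and 100% = uninfected wells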
Mtb H37Rv = M. tuberculosis H37Rv growth inhibitors, H37Rv strain (AID 1626). inhibition, % at 10 µM, or IC50 in µM where a hit was titrated. M. tuberculosis H37Rv growth inhibition; higher % means a stronger effect. actives 0.95% (n = 220,000);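 active means confirmed in a dose series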;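 further: bacteria incubated seven days before Alamar blue readout; 0% = bacteria only wells and 100% = bacteria with antibiotic wells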
RecA intein inh = Mtb RecA intein splicing inhibitors, primary screen, biochemical, fluorescence, HTS; cell-free RecA intein splicing; Protein RecA (Mycobacterium tuberculosis (strain ATCC 25618 / H37Rv)), P9WHJ3; inhibition, %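 (about 9 µM by stock and volumes)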; actives 0.75% (n = 290,000); AID 2221, 2009; in the data active means inhibition above about 30%;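 further: 0% = vehicle wells and 100% = reference inhibitor control wells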
Target sequence (P9WHJ3 whole entry, looked up): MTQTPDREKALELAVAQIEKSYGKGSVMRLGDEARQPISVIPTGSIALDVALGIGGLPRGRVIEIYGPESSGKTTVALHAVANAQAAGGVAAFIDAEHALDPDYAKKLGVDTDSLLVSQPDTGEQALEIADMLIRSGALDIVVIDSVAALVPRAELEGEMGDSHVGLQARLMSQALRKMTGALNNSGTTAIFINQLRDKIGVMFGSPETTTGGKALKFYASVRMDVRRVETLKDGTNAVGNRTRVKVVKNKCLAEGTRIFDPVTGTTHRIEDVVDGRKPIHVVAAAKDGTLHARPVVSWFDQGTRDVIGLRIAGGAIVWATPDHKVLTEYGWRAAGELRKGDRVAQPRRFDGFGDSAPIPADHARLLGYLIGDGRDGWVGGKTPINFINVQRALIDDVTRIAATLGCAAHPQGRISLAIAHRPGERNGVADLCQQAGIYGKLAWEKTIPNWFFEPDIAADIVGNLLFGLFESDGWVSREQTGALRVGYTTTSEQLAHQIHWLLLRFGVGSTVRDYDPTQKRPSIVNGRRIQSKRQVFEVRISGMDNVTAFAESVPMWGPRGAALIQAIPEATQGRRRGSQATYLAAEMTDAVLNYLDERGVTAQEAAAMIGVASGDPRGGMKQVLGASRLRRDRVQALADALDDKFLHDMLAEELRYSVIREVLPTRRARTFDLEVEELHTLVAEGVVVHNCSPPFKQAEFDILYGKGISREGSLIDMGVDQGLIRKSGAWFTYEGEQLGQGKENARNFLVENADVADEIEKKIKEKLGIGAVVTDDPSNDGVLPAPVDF
Mtb bLac sens = beta-lactam sensitization of Mtb H37Rv, H37Rv | inhibition, % at 25 µM | M. tuberculosis H37Rv growth with meropenem, percent inhibition; hits of this screen are not shown here | actives 0.27% (n = 330,000);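 active means about 74% or more and at least 40 points above the plate without the antibiotic, then above 30% in a dose series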;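 further: growth measured after seven days incubation then overnight dye step; 0% = bacteria only wells and 100% = bacteria with antibiotic; twin plates without the antibiotic show which effects depend on it; some results filed as inactive read as strong as hits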
YopH PTP inh = YopH tyrosine phosphatase inhibitors, primary screen, biochemical, fluorescence Ex485/Em525. YopH tyrosine phosphatase [Yersinia enterocolitica]. inhibition, %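 (about 10 µM by stock and volumes)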. actives 0.16% (n = 140,000). AID 898, 2007;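 active means inhibition of 50% or more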;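 further: controls were vehicle for no effect and minimum signal wells for full effect; inactives centre near -20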
Arbovirus anti repeat = recorded beside Arbovirus anti, whose call it bears; inhibition, %; measured here: 10K subset replicate screen; many hits read low in the repeat;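 first of two repeat runs on a subset; 0% = infected and 100% = uninfected wells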
* = called active by the depositor; x = no result given.

SMILES	Arbovirus anti	Mtb H37Rv	RecA intein inh	Mtb bLac sens	YopH PTP inh	others
O=[N+]([O-])/C(C(Cl)=C(Cl)Cl)=C1\Nc2ccccc2O1	x	2%	-3.3	-1	x
O=C(NCCCn1ccnc1)c1ccc(N2CCCCCC2)c([N+](=O)[O-])c1	-1	3%	1.2	-3	x
OC(Cn1cnnc1)c1ccccc1 (stereo not given)	x	x	-2.3	-1	x
COc1ccc(CC(=O)OCC(=O)NC(=O)NC2CCCCC2)cc1	0	0%	1.5	-11	-30
COc1ccc(-n2c3c(cc(C(=O)N4CCN(CCO)CC4)c2=O)C(=O)CC(C)(C)C3)cc1	-4	3%	1.4	9	7
Cc1cccc(C(=O)NC(NCc2ccco2)C(Cl)(Cl)Cl)c1 (stereo not given)	-9	-1%	-7.4	-7	-43
O=C(C(=O)N1CCCc2ccccc21)c1c[nH]c2ccccc12	-3	-1%	2.5	-2	-7
CC(CCc1ccccc1)NC(=O)C1CCN(S(=O)(=O)N2CCOCC2)CC1 (stereo not given)	-3	2%	0.6	-7	-24
COC1CCCCC1Nc1cccc(SC)c1 (stereo not given)	4	-1%	1.6	-3	-11	Arbovirus anti repeat=-3
CC(C)NC(=O)NC(=O)COC(=O)c1cc(S(=O)(=O)N2CCCCC2)ccc1N1CCOCC1	x	x	-1.3	-11	x
COc1ccc(-c2noc(CN3CCCCC3)n2)cc1OC	4	-4%	-0.9	-11	-13
CCOC(=O)Cc1csc(NC(NC(=O)CC)(C(F)(F)F)C(F)(F)F)n1	0	3%	3.0	-7	-44	Arbovirus anti repeat=-1
COc1ccc(C2CC(c3ccc(Br)cc3)=NN2C(=O)CCC(=O)O)cc1OC (stereo not given)	x	x	0.7	-4	x
COc1ccc2cc3cc(C(=O)NCCc4ccc(OC)c(OC)c4)oc3nc2c1	2	x	0.9	21	-20
CC(C)N1CCN(Cc2ccoc2)CC1CCO (stereo not given)	5	0%	1.9	-4	x
COc1ccc(Br)c(OC)c1C(=O)NC(=O)Nc1c(F)cccc1F	x	x	-1.1	0	x
O=C(CS(=O)(=O)c1cccc(C(F)(F)F)c1)Nc1ccccc1Cl	-11	-7%	-0.7	7	-44
CCOc1ccc(N2CC(C(=O)Nc3cc(Cl)ccc3-n3cncn3)CC2=O)cc1 (stereo not given)	x	x	0.2	-6	x
COc1c(N2CCNC(C)C2)c(F)cc2c(=O)c(C(=O)O)cn(C3CC3)c12 (stereo not given)	x	<0.2µM*	-0.9	100	x
O=C(Nc1ccc(-c2nc3ncccc3o2)cc1)c1ccco1	-6	-11%	0.0	3	-11
CCOc1ccc(CN(CCO)CCO)cc1[N+](=O)[O-]	9	5%	-5.7	-14	-53
N#C/C(=C/c1ccc(O)cc1)C(=O)NCc1ccc(Cl)cc1	x	x	1.0	-4	x
CCCCCCC(=O)N/N=C/c1ccco1	-8	15%	-1.4	-1	-28
CCOc1ccc2nc(NC(=O)CN3C(=O)C4CCCCC4C3=O)sc2c1 (stereo not given)	x	x	-0.9	-3	x
O=C(NCc1ccccc1)C1=C[C@H](C2CCCCC2)C[C@H](OCCCCO)O1	x	-2%	7.3	3	x
O=C(O)c1cccc(S(=O)(=O)Nc2cccc(S(=O)(=O)N3CCCCCC3)c2)c1	5	-8%	0.6	-3	x
CC(=O)Nc1ccc(-c2csc(Nc3ncccn3)n2)cc1	-10	-5%	x	4	x
CC(C)C[C@H](NC(=O)c1[nH]cnc1C(=O)N[C@@H](Cc1ccccc1)C(=O)OC(C)(C)C)C(=O)OCc1ccccc1	x	x	1.1	-9	x
O=S(=O)(Cc1ccccc1Cl)N1CCN(Cc2ccc3c(c2)OCO3)CC1	-5	10%	x	3	-9
Cc1ccc(NC(=O)CCC(=O)NNC(=O)CCc2ccccc2)c(C)c1	-4	-4%	4.1	-18	x
COc1ccc(N(CC(=O)NCC2CCCO2)C(=O)CCC(=O)Nc2nccs2)cc1 (stereo not given)	5	-4%	x	0	6
Cc1ccccc1S(=O)Cc1ccc(C(=O)NCCCN2CCCCC2)o1 (stereo not given)	x	x	-1.8	-11	x
COc1ccc(NC(=O)CCC(=O)c2cccs2)cc1S(=O)(=O)Nc1ccccc1Cl	-15	5%	2.5	4	-15
COc1ccc(CCNc2ccc(C(CC(N)=O)NC(=O)Cc3ccc(Br)cc3)cc2[N+](=O)[O-])cc1 (stereo not given)	x	-6%	-1.0	-8	x
COC(=O)/C(C#N)=C/c1c(Oc2cc(C)cc(C)c2)nc2ccccn2c1=O	x	-14%	-3.0	3	x
O=C(Cn1cc(C(F)(F)F)cc(Cl)c1=O)NCc1ccc(Cl)cc1	x	x	0.9	2	x
CCC(=O)Nc1nnc(SCC(=O)Nc2ccc3c(c2)OCCO3)s1	x	x	2.6	1	x
Cc1[nH]ccc(=O)c1OCc1ccccc1	-2	-1%	1.1	4	-39
O=C(O)CC1(CC(=O)N2CCC(C(=O)O)CC2)CCCC1	x	x	-0.1	-1	x
CCOC(=O)NC1(C(F)(F)F)C(=O)N(Cc2ccccn2)C2=C1C(=O)CC(C)(C)C2 (stereo not given)	-11	-10%	7.2	-23	-9
O=C(c1cccs1)N1CCC(c2nc3c(nnn3Cc3ccccc3)c(=O)[nH]2)CC1	-3	-6%	1.0	-8	-33
CCOC(=O)c1nc(S(C)(=O)=O)ncc1Cl	12	1%	18	7	-45
C=CCNC(=S)N/N=C/c1ccc(N(CC)Cc2ccccc2)cc1	-17	39%	1.3	5	-17
COc1ccc(C2C(C#N)=C(N)Oc3c2sc2nc(C)cc(C)c32)cc1 (stereo not given)	-12	1%	0.5	23	-7
CC(C)NC(=O)C(=O)Nc1ccc2c(c1)N(S(=O)(=O)c1cccs1)CCC2	x	x	2.4	-15	x

Brought forward from above: 6 compounds, followed by the next part.
SMILES	Arbovirus anti	Mtb H37Rv	RecA intein inh	Mtb bLac sens	YopH PTP inh	others
CCOC(=O)NC1(C(F)(F)F)C(=O)N(Cc2ccccn2)C2=C1C(=O)CC(C)(C)C2 (stereo not given)	-11	-10%	7.2	-23	-9
O=C(c1cccs1)N1CCC(c2nc3c(nnn3Cc3ccccc3)c(=O)[nH]2)CC1	-3	-6%	1.0	-8	-33
CCOC(=O)c1nc(S(C)(=O)=O)ncc1Cl	12	1%	18	7	-45
C=CCNC(=S)N/N=C/c1ccc(N(CC)Cc2ccccc2)cc1	-17	39%	1.3	5	-17
COc1ccc(C2C(C#N)=C(N)Oc3c2sc2nc(C)cc(C)c32)cc1 (stereo not given)	-12	1%	0.5	23	-7
CC(C)NC(=O)C(=O)Nc1ccc2c(c1)N(S(=O)(=O)c1cccs1)CCC2	x	x	2.4	-15	x
CN(C)CCCN(Cc1ccccc1)C(=S)Nc1ccc(OC(F)F)cc1	-6	4%	-3.2	-9	-8
CCN1C(=O)/C(=C\N(C(C)=O)c2ccccc2)OC1=S	-11	4%	2.4	-3	-7
O=C(COC(=O)c1ccc([N+](=O)[O-])o1)Nc1cccc2ccccc12	-3	2%	x	80	x
CCOC(=O)c1ccc(NC(=O)c2ccco2)cc1	x	x	2.2	62	x
CN1CC(=O)Nc2ccccc2C1=O	x	x	0.5	4	x
Cc1ccc(NC(=S)NCCC(c2ccccc2)c2ccccc2)c(C)c1	-19	-4%	4.2	2	-42
COc1ccc(OC)c(C(C)NC(=O)C23CC4CC(CC(C4)C2)C3)c1 (stereo not given)	x	x	-0.4	0	x
CC(=O)Nc1ccc(/C=N\NC(=O)CNS(=O)(=O)c2ccc([N+](=O)[O-])cc2)cc1	10	4%	-2.5	-5	x
CC1CN(CC(O)COC(c2ccc(Cl)cc2)c2ccc(Cl)cc2)CC(C)O1 (stereo not given)	-16	16%	12	31	-11
COc1ccc(C(NC(C)=O)c2cc(Cl)c3cccnc3c2O)cc1 (stereo not given)	x	x	-1.6	5	x
CC(C)[C@H](NC(=O)c1ccccc1Br)C(=O)OCc1nc2ccsc2c(=O)[nH]1	x	x	-9.7	-5	x
Cc1cc(S(=O)(=O)N2CCC3(CC2)OCCN3S(=O)(=O)c2cccs2)ccc1F	x	x	5.4	-6	x
CCOc1ccc(N2CC(C(=O)OC)CC2=O)cc1 (stereo not given)	-2	28%	5.3	95	8
Cc1c(NC(=O)C(C)OC(=O)C(NC(=O)c2ccco2)C(C)C)c(=O)n(-c2ccccc2)n1C (stereo not given)	-2	-4%	-2.1	2	-16
CN1CCNC(=O)C1CC(=O)NCCc1ccccc1F (stereo not given)	10	-2%	1.9	-6	x
COc1ccc(CNC(=O)COC(=O)c2cc(-c3ccc(Cl)s3)nc3ccccc23)cc1	-29	x	-9.0	49	-7
CCN(CC)C(=O)CSc1nc2ncc(Br)cc2[nH]1	4	0%	0.8	-16	-56
CCn1c(-c2ccc(-c3ccccc3)cc2)c[nH]c1=S	-9	-2%	1.5	x	-20
O=C(NCc1ccc2c(c1)OCO2)c1nnc(Cc2ccc(F)cc2)o1	-6	x	0.0	6	-19	Arbovirus anti repeat=-1
COC(=O)Cc1c(C)nc2nc[nH]n2c1=O	6	0%	x	3	-20
CC(C)N(C(=O)c1ccc(-c2ccccc2F)cc1)C(C)C	x	20%	6.3	-3	x
NS(=O)(=O)c1ccc(-c2ccc(C=C3C(=O)c4ccccc4C3=O)o2)cc1	x	x	-1.7	-1	x
COc1ccc(NC(=O)CC2C(=O)N(C)C(=S)N2Cc2ccc3c(c2)OCO3)cc1 (stereo not given)	2	0%	-0.7	-10	-29
Cc1cc(NC(=O)Nc2cccs2)no1	-6	-13%	-2.7	3	5
CCOC(=O)/C(C#N)=C\c1ccc(OCC(=O)Nc2ccc(C)cc2C)c(OC)c1	5	0%	-3.5	2	-27
O=C1C(=O)N(c2nccs2)C(c2ccccc2F)/C1=C(\O)c1ccc2c(c1)OCCO2 (stereo not given)	x	x	-2.9	6	x
COc1cccc(OC)c1C(=O)O/N=C(\N)c1ccncc1	x	-3%	-0.8	-6	x
CCN(CC)CCCNc1nc(-n2nc(C)cc2C)nc2sc3c(c12)CC(C)(C)OC3	x	-6%	-1.8	3	x
Cn1cc(-c2nnnn2-c2ccc(Cl)cc2)c(C(F)(F)F)n1	17	-10%	1.9	2	-32
CCN(CC)S(=O)(=O)c1ccc(N2CCOCC2)c(NC(=O)CN2C(=O)NC(C)(c3ccccc3)C2=O)c1 (stereo not given)	x	x	2.7	-12	x
CCOc1ccc(C(=O)OCc2nnc(-c3cccs3)o2)cc1OC	3	-3%	x	6	34
C=CCn1c(=NC(=O)c2cc(Cl)sc2Cl)sc2cc(S(N)(=O)=O)ccc21	0	52%	-5.5	45	15
O=C(NC1CCN(S(=O)(=O)c2ccc(Cl)c(F)c2)CC1)c1cccnc1	x	x	-0.9	-2	x
COc1cc(/C=C/C(=O)Nc2cc(S(=O)(=O)N3CCOCC3)ccc2N2CCCC2)cc(OC)c1OC	-4	-12%	0.4	5	x
NC(=O)C1CCN(C(=O)c2ccc3nc(N4CCCCC4)sc3c2)CC1	x	-2%	0.8	-3	x
COc1ccc(C(=O)CSc2nnc(-c3cccnc3)n2Cc2ccco2)cc1	6	-7%	1.6	5	-52
Cc1cccc(-c2nc3c(c(=O)c4ccccc4n3C)c(=O)n2-c2ccccc2)c1	x	19%	0.7	-8	x
Cc1ccc(S(=O)(=O)N2CCOC2CNC(=O)C(=O)NCC(C)C)cc1 (stereo not given)	x	x	1.2	9	x
Cc1cccc(N2C(=O)CSC23CCCCC3)c1	-2	-6%	-4.2	-8	x
COc1ccc(OC)c(NC(=O)C(CC(=O)O)Cc2ccc(Cl)cc2)c1 (stereo not given)	0	2%	-6.5	-6	-76
CSc1ccccc1OCc1cc(C(=O)NCc2cnc(C)cn2)no1	x	x	-5.0	3	x
CCOC(=O)c1nc(NCc2ccccc2C)c2ccccc2n1	13	2%	-2.0	0	x
O=C(CN1C(=O)NC(Cc2c[nH]c3ccccc23)C1=O)NCC(F)(F)F (stereo not given)	x	x	-2.7	2	x
COC(=O)c1c(C)[nH]c(C(=O)NCc2ccco2)c1C	4	-13%	-1.1	4	x
Cc1cccnc1NC(=O)c1cc2ccccc2oc1=O	-6	25%	4.3	x	x
COc1ccc(CC(=O)OC(C)C(=O)NCc2ccc3c(c2)OCO3)cc1OC (stereo not given)	x	x	2.6	-12	x
O=C(O)CCCCCn1c(SCC(=O)c2ccc(O)c(O)c2)nc2ccsc2c1=O	-1	-7%	-3.8	3	-14
O=C(C1=C[C@@H](C2CC2)C[C@@H](OCc2ccc(CO)cc2)O1)N1CCOCC1	2	0%	1.0	-8	x
COc1ccc(C(=O)c2oc3nc(C)cc(C)c3c2N)cc1	-3	-8%	-11	-7	-40

High-throughput results as filed in PubChem BioAssay.

Some of the compounds tested, so the mix of outcomes need not match the whole.
